From PubChem BioAssay
S aureus helic: blocks Staphylococcus aureus DNA helicase; purified S. aureus helicase, fluorescence unwinding assay; about half of the hits fall short of the stated cut; actives 0.05% (n = 120,000); inhibition, %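 (tested at about 80 µM)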;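 active = both duplicates at 50% or more, or one of them with a favoured structure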;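 also: 0% = mean of negative control wells and 100% = mean of positive control wells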
MgrA DNA FP: S. aureus MgrA-DNA binding modulation | fluorescence polarization | actives 0.13% (n = 84,000) | AID 602314 | inhibition, %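 (about 10 µg/mL by stock and volumes)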;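 active = above 50% in either of two replicates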;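 also: 0% = protein plus DNA without compound and 100% = DNA alone without protein; higher means less MgrA bound to DNA so lower polarization; one replicate is shown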
* hit, by the source's call; . = not tested or not shown.

S aureus helic,MgrA DNA FP,SMILES
3,.,O=C=Nc1ccc(Cl)cc1Cl
-3,.,CCOC(=O)CCc1nnc(-c2ccncc2)o1
.,-9.0,COc1ccc(N(C)CC(=O)O)c(C(=O)O)c1
3,.,CCOC(=O)c1nn(-c2ccccc2)c(=O)cc1OCC
-7,1.6,COc1ccc(C2CC(=O)c3cnc(N)nc3C2)cc1OC (stereo unspecified)
9,-0.5,CC(C)(C)CC(=O)Nc1nnc(-c2ccccc2)s1
4,1.4,O=C(O)CSCC(=O)N(c1ccccc1)c1ccccc1
0,0.8,CSc1ccc(C=Nc2ccc(Nc3ccccc3)cc2)cc1
.,12,Cn1c(=O)sn(-c2ccccc2)c1=O
-6,3.2,O=C1CCC(C2CCC(=O)N2)N1 (stereo unspecified)
15,-0.3,FC(F)(F)c1ccc(NC2CCCCC2)nc1
-2,-0.1,CCc1nnsc1C(=O)O
7,2.1,NS(=O)(=O)c1ccc2c(c1)Cc1ccccc1-2
13,4.1,COc1ccccc1N1CCN(C(=O)c2ccco2)CC1
-15,.,N=C1/C(=C2\Nc3ccccc3S2)CC(=O)N1c1ccccc1
-13,.,COc1ccc(C2N(c3ccc4c(c3)OCCO4)C(=O)C2(F)F)cc1OC (stereo unspecified)
-6,2.6,O=C(CCN1C(=O)/C(=C/c2ccc(Cl)cc2)SC1=S)Nc1ccccc1
-1,-0.2,Cc1occc1C(=O)NCc1ccccc1
4,-1.6,CCSc1nc2ccccc2n1CC(N)=O
13,.,CC(=O)Nc1nc2c(c3c1c(=O)oc1ccccc13)CCCCC2
2,-2.1,Cc1ccc(Cn2ncc3c(N4CCCC4)ncnc32)cc1
10,-1.2,CCOc1ccc(S(=O)(=O)Nc2ccccc2C(F)(F)F)cc1
37,.,Cc1ccc(Cl)cc1N1CCN(C(=O)C2CCN(S(=O)(=O)c3c(C)noc3C)CC2)CC1
.,-0.5,CN(C)c1ccc(/C=[N+](\[O-])C2(C)CCCCC2=O)cc1 (stereo unspecified)
-5,.,C/C(N)=C(/C#N)C(=O)CSc1n[nH]c(-c2cccs2)n1
13,.,Cc1cc(-n2c(C)cc(CNCc3nc4ccccc4[nH]3)c2C)no1
11,0.0,O=C1c2ccccc2NC2(C(=O)Nc3ccccc32)N1CCOc1ccccc1 (stereo unspecified)
.,-0.8,CC1CCN(c2ccc(/C=C3\SC(N)=NC3=O)cc2[N+](=O)[O-])CC1
7,.,CC1(C)CC(N(Cc2ccccc2)C(=O)Cc2ccccc2)CCO1 (stereo unspecified)
14,.,O=S(=O)(NCc1ccc(Cl)cc1)c1cccc2nsnc12
3,5.3,COc1ccc(CNC(=O)C2CCNCC2)cc1
.,-2.2,O/N=C/c1ccc(-c2cccs2)s1
.,-0.8,O=[N+]([O-])c1cccc(-c2cc(-c3cccs3)cc(-c3ccccc3)n2)c1
.,0.3,O=C1CSC(c2ccc(Cl)cc2)N1c1cccnc1 (stereo unspecified)
-9,.,O=c1c(Cc2ccccc2)c(N2CCCCC2)nc2n1CCCS2
7,.,Cc1cccc(N2CCN(CC(=O)Nc3ccc4c(c3)OC(F)(F)O4)CC2)c1C
.,-2.5,CC1Sc2ccc(Cl)cc2C(=O)/C1=C/N(C)C (stereo unspecified)
.,1.3,Cc1ccc(C)c(NC(=O)CSc2nnc(C)c3ccccc23)c1
-14,.,O=S(=O)(c1cccc(C(F)(F)F)c1)N1CCNCC1
-10,.,N#Cc1ccc(COc2ncnc3sccc23)cc1
-18,.,CC(C)c1ccc(S(=O)(=O)c2ccc(NN)cc2)cc1
-21,.,O=C(O)c1nn(C2CCOC2=O)c(=O)c2ccccc12 (stereo unspecified)
15,-2.5,COc1ccc(N2CCN(C(=O)CNC3CC3)CC2)cc1
5,.,CN(C)CCCn1c2c(c(SCC(=O)Nc3ccccc3)nc1=O)CCC2
.,-1.8,COc1ccc(CCNc2ncnc3scc(-c4ccc(C)cc4)c23)cc1OC
0,0.9,O=C(NCc1ccccc1)/C(=C\c1ccccc1)NC(=O)c1ccccc1
11,.,CN1C(=C(C#N)C(=O)COc2ncnc3sc4c(c23)CCCC4)N(C)c2ccccc21
-18,.,O=C(OCC(=O)N(C1CCCCC1)C1CCCCC1)c1ccc2c(c1)OCCO2
1,.,Cc1cc(C(=O)COC(=O)Cn2cncn2)c(C)n1-c1ccc(F)cc1
-4,.,Cc1nn(CCC(=O)O)c2nc(-c3cccs3)cc(C(F)(F)F)c12

The list goes on:
S aureus helic,MgrA DNA FP,SMILES
-11,.,CCc1nc2ccccc2c(C(=O)OCC(=O)Nc2ccc3c(c2)OCCCO3)c1C
3,-1.0,CCc1nnc(SCC(=O)O)n1N
-2,.,N#Cc1c(Nc2ccc(F)cc2)sc2c(O)cc(=O)[nH]c12
-7,-1.9,Cc1ccc(Nc2nc(C(=O)N(C)Cc3ccccc3)cs2)cc1
-3,.,CCCCC(=O)Nc1cc2[nH]c(=O)[nH]c2cc1C
16,-1.4,CCNc1nc(N)nc(OCCNC(C)=O)n1
-2,-1.2,CC(C)Cn1c(SCC(N)=O)nc2ccccc2c1=O
1,2.7,Cc1cc(C)cc(OCC(=O)Nc2nccs2)c1
6,.,Cc1nc2cccc(C(=O)N3CCCCCC3)c2o1
-9,.,CC1Cc2ccccc2N1C(=O)COc1ccc2c(c1)OCO2 (stereo unspecified)
.,5.5,CCOc1ccc2ccccc2c1C1Nc2ccccc2-c2nnc(SCC)nc2O1 (stereo unspecified)
9,.,O=C(NCc1ccccc1)C1CCN(C(=O)c2sccc2-n2cccc2)CC1
3,.,Cc1cc(N(C)C)nc(Nc2ccccc2)n1
15,2.8,Cc1ccc(/C=C/C(O)=C2/C(=O)N(C)C3(C)CC2c2ccccc2O3)cc1 (stereo unspecified)
17,.,Cc1ccc(Nc2ccc(C)cc2)cc1
14,.,Cc1ccccc1-n1nnnc1SCC(C)C
1,-1.9,Cn1cnnc1SC/C=C/c1ccccc1
-2,-0.7,O=C(Nc1nccs1)c1cc(-c2ccccc2)nc2ccccc12
.,-1.4,CC(C)(C)c1cc2nc(-c3cccc([N+](=O)[O-])c3)cc(C(F)(F)F)n2n1
4,-1.1,COc1cccc(N=c2oc3cc(O)ccc3cc2C(=O)NCC2CCCO2)c1 (stereo unspecified)
42,.,O=C(COC(=O)c1cc(O)c(O)c(O)c1)NC1CCCc2ccccc21 (stereo unspecified)
8,.,Cc1ccc2[nH]c(=O)c3cc(C(=O)N4CCCc5ccccc54)sc3c2c1
-19,.,Cn1nnnc1SCCOc1ccc(C#N)cc1
-1,-3.6,COc1ccc(C(=O)CSC#N)cc1OC
4,.,Cc1cc(C(=O)N2CCN(C(c3ccccc3)c3ccccc3)CC2)n[nH]1
4,.,CC(C#N)(NC(=O)CSc1ccc(S(=O)(=O)N2CCCCC2)cn1)C1CC1 (stereo unspecified)
-1,.,O=C(OC1CCOC1=O)c1cccc(S(=O)(=O)N2CCc3ccccc32)c1 (stereo unspecified)
1,-0.8,COC(=O)c1cccnc1-n1c(=O)c2cccnc2n(Cc2ccccc2F)c1=O
4,2.7,CC(C)=N/N=C1/NC(=O)C(CC(=O)Nc2cccc3ccccc23)S1 (stereo unspecified)
9,-0.5,C=CCN1C(=O)C(CCC(=O)O)NC1=S (stereo unspecified)
4,.,Cc1ccc(C(=O)N2C(=Nc3cccc(C(F)(F)F)c3)SCC2(C)C)o1
-2,.,O=C(NCc1ccco1)Oc1ccccc1
19,6.9,CC(C)OC(=O)c1oc2c(O)c(O)ccc2c(=O)c1-c1cnn(-c2ccccc2)c1
8,.,Cc1cccc(NS(=O)(=O)c2cnc[nH]2)c1
-19,.,CCNc1c(NC(=O)c2ccccc2C)c(=O)oc2ccccc12
0,5.1,COc1cccc(C(C#N)N2CCCCC2)c1O (stereo unspecified)
-11,.,CNC(=O)COC(=O)c1cccc(S(=O)(=O)N(C)c2ccc(C)cc2)c1
6,0.6,CCOC(=O)c1nnc(-c2ccccc2)o1
.,-1.6,CS(=O)(=NS(=O)(=O)c1ccc(-c2ccccn2)s1)c1ccc(Cl)cc1 (stereo unspecified)
0,2.3,O=C(/C=C/c1cccs1)N(c1ccccc1)c1ccccn1
-13,.,CC(C)c1ccccc1N=C1SCCN1C1CCS(=O)(=O)C1 (stereo unspecified)
27,0.9,C=CCn1c2nc3ccccc3nc2c2c(=O)n(C3CCCC3)cnc21
-14,.,CC1CCC(C(C)C)C(OC(=O)CSc2nnnn2C)C1 (stereo unspecified)
.,0.9,CC(=O)N1CCN(c2ccc(OC(=O)c3ccc(Oc4cc(Cl)cc(Cl)c4)o3)cc2)CC1
7,.,Cc1cc(C)n(C(C)CC(=O)Nc2ccc3c(c2)OCO3)n1 (stereo unspecified)
-16,-2.9,O=C(COC(=O)c1cncc(Br)c1)NCc1ccccc1
-15,.,COCCn1c(C)cc(C(=O)CSc2nnc(-c3ccc4c(c3)OCO4)o2)c1C
.,-2.9,O=S(=O)(Cc1ccccc1)CC(O)COc1ccc(F)cc1 (stereo unspecified)
17,.,O=C(NCc1nc(-c2ccc(Cl)cc2)no1)C12CC3CC(CC(C3)C1)C2
.,-3.6,Nc1nc(SCC(=O)c2cc(-c3ccccc3)no2)ncc1C(=O)O

Further records follow:
S aureus helic,MgrA DNA FP,SMILES
1,-0.3,CCOC(=O)Cc1ccccc1C(=O)OC
.,-2.5,O=c1cc(CSc2n[nH]c(=O)n2Cc2ccco2)c2ccc(O)cc2o1
-3,-1.6,Cc1cc(C)nc(NC(C)(C)C(=O)O)n1
9,-1.2,CCn1c(SC)nnc1C1CCCN(CC(=O)NCc2ccc3c(c2)OCO3)C1 (stereo unspecified)
-4,.,CC(=O)n1cc(/C=N/NC(N)=O)c2ccccc21
-21,.,N=CC1=C(O)CC(c2ccccc2)CC1=O (stereo unspecified)
.,1.3,CCCCC1(C2CC(=O)N(c3cc(F)ccc3F)C2=O)C(=O)N(c2ccccc2)N(c2ccccc2)C1=O (stereo unspecified)
4,0.4,O=C(CCn1c(SCc2ccc(F)cc2)nc2c(sc3ccccc32)c1=O)NCC1CCCO1 (stereo unspecified)
12,.,Cc1nnc2sc(SCC(=O)Nc3nccs3)nn2c1=O
.,-2.6,CCN(CC)c1ccc2cc(-c3nnc(Nc4ccc(Br)cc4)s3)c(=O)oc2c1
11,0.1,O=C(CC(c1ccccc1)c1ccccc1)NCCO
-19,.,COc1cc(C2CC(=O)Nc3ccccc3S2)cc(OC)c1OC (stereo unspecified)
-4,.,COCCn1c(C)cc(/C=N/n2c(Cc3cccc4ccccc34)n[nH]c2=S)c1C
.,-0.2,CCOC(=O)c1c(C)n(-c2ccccc2)c2ccc(OC(=O)c3ccc(S(=O)(=O)N4CCCCC4)cc3)cc12
0,-5.7,Cn1c(SCc2ccccc2)nnc1C1CCN(C(=O)c2ccc3c(c2)OCO3)CC1
-1,.,CC(C)(C)OC(=O)NCCc1c[nH]c2ccccc12
4,.,CC(OC(=O)c1cc(S(=O)(=O)N(C)C)ccc1N1CCCC1)C(=O)N1CCc2ccccc21 (stereo unspecified)
-31,.,O=c1c2nccnc2nc(SCc2ccc(F)cc2)n1Cc1ccccc1
.,0.0,C/C(=N\NC(=O)N/N=C(\C)c1ccc(C)cc1)c1ccc(C)cc1
5,.,CN=C1SC(C(=O)Nc2ccc(C)cc2Br)C(N)=C1C(=O)NCCN1CCOCC1 (stereo unspecified)
8,0.6,Cc1n(CC(=O)c2ccc(F)cc2)c2ccccc2[n+]1C
2,.,CCN(CC)c1ccc(NC(=O)CN2CCN(CC(=O)Nc3ccc(Br)cc3)CC2)cc1
0,3.5,O=C(/C=C1\SC(=O)N(CN2CCCCC2)C1=O)Nc1ccccc1
.,-1.7,Clc1ccc(OCc2nc(CSc3ccccn3)no2)c(Cl)c1
-5,.,C#CCNc1cc(-c2ccccc2)nc2nncn12

Profiles, looked up by structure. Order of values: S aureus helic	MgrA DNA FP
Cc1nc2cccc(C(=O)N3CCCCCC3)c2o1 is listed as 6	.
O=C(CCN1C(=O)/C(=C/c2ccc(Cl)cc2)SC1=S)Nc1ccccc1 is listed as -6	2.6
CC1CCC(C(C)C)C(OC(=O)CSc2nnnn2C)C1 (stereo unspecified) is listed as -14	.
O=S(=O)(c1cccc(C(F)(F)F)c1)N1CCNCC1 is listed as -14	.
CCN(CC)c1ccc2cc(-c3nnc(Nc4ccc(Br)cc4)s3)c(=O)oc2c1 is listed as .	-2.6

Ordered by value in S aureus helic (falling): some entries from above
SMILES | S aureus helic | MgrA DNA FP
O=C(CC(c1ccccc1)c1ccccc1)NCCO | 11 | 0.1
CC(OC(=O)c1cc(S(=O)(=O)N(C)C)ccc1N1CCCC1)C(=O)N1CCc2ccccc21 (stereo unspecified) | 4 | .
CC(=O)n1cc(/C=N/NC(N)=O)c2ccccc21 | -4 | .
N=CC1=C(O)CC(c2ccccc2)CC1=O (stereo unspecified) | -21 | .

A second format for part of the listing above.
Second line of a record: S aureus helic, MgrA DNA FP
> COc1ccc(N(C)CC(=O)O)c(C(=O)O)c1
    ., -9.0
> CCOC(=O)c1nn(-c2ccccc2)c(=O)cc1OCC
    3, .
> COc1ccc(C2CC(=O)c3cnc(N)nc3C2)cc1OC (stereo unspecified)
    -7, 1.6
> CC(C)(C)CC(=O)Nc1nnc(-c2ccccc2)s1
    9, -0.5

(cont.)
S aureus helic,MgrA DNA FP,SMILES
11,-0.2,COc1ccc(-c2csc(N3N=C(C)C(C(c4ccc(Cl)cc4)C(C#N)C(N)=O)C3=O)n2)cc1 (stereo unspecified)
-6,.,Cc1nn(CCC#N)cc1C=C1C(=O)NC(=O)NC1=O
10,.,CN=C(Nc1ccc(F)cc1)c1ccccc1
5,-1.1,O=C(O)c1ccccc1C(=O)Cc1ccc(I)cc1
1,1.0,CC1=NN(c2ccccc2)C(=O)/C1=C\N1CCC(C)CC1
8,-2.9,COc1ccc(NCc2ccc(OCC(N)=O)c(Cl)c2)cc1
-12,0.0,Cc1cc(CN2CCOCC2)c(O)c(C2(C)CCCCC2)c1

Some of these compounds in order of count of non-hydrogen atoms, falling.
S aureus helic,MgrA DNA FP,SMILES
-12,0.0,Cc1cc(CN2CCOCC2)c(O)c(C2(C)CCCCC2)c1
5,-1.1,O=C(O)c1ccccc1C(=O)Cc1ccc(I)cc1
10,.,CN=C(Nc1ccc(F)cc1)c1ccccc1

An excerpt; count on the stated rates, not on these rows.
